Compound activity as filed in PubChem.
CSC inhib: cancer stem cell viability inhibitors, primary screen, luminescence. cancer stem cell-like cells viability. inhibition, % at 7.5 µM. actives 1.1% (n = 300,000). AID 2717, 2010;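 active = mean at 75% or more and at least half the replicates too; tested in HMLE shEcad cells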;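 also: 0% = median of negative and 100% = median of positive control wells; the first replicate is given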
MT1-MMP act inh: blockers of MT1-MMP proenzyme processing, primary screen, HT1080 RFP-PRO-GFP cells, GFP/RFP fluorescence. GFP/RFP ratio change, % at 20 µM. GFP/RFP ratio fluorescence, overnight; percent of plate control window, DMSO zero. AID 651647, 2012. actives 0.061% (n = 360,000);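 active = GFP/RFP ratio change of at least 30% with cell ATP level not reduced by more than half and red fluorescence within 50% of control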; also: strong numbers were not always called active
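Read-out: GFP/RFP fluorescence ratio; Test system: RFP-PRO-GFP reporter HT1080 cells; Compound dosing: single-point 20 µM compound, 1% DMSO; Times: overnight compound exposure at 37 °C.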
HIV Env fusion: inhibitors of HIV-1 Env-driven cell-cell fusion, primary screen, HeLa-JRFL effector, CEM21 target cells, luciferase. inhibition, % at 12.3 µM. actives 1.1% (n = 360,000). AID 651610, 2012;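 active = mean replicate inhibition score of at least 50 and every replicate individually at or above 50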;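 also: 0% = plate neutral controls and 100% = maraviroc near 300 nM; one replicate is shown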
Yeast UUG start: modulators of yeast start codon fidelity, primary screen, whole organism, S. cerevisiae, single point, plate reader; S. cerevisiae UUG-firefly luciferase reporter, luminescence/redox ratio; activity score, % at 18.7 µM; actives 0.13% (n = 350,000); AID 602363, 2012;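 active = replicate mean at a twofold rise or more, about +100% in these data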;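 also: firefly luciferase made from a UUG start codon reports start codon fidelity; reporter light over untreated wells divided by growth signal over untreated wells; some hits fall short of that in this replicate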
eIF4H FP inh: human eIF4H binding inhibitors, primary screen, translation initiation inhibitor project, biochemical, uHTS, fluorescence polarization; Eukaryotic translation initiation factor 4H (Homo sapiens), Q15056; eIF4H fluorescence polarization binding assay; inhibition, % at 35 µM; actives 0.94% (n = 290,000); AID 2012, 2009;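 active = 50% or more with normal probe brightness, or confirmed in later tests; about a fifth of its hits are not listed in these tables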;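 also: calls also rest on retests at 20 µM and on dose response follow-up; 0% = protein and probe with vehicle and 100% = probe without protein; strong numbers were not always called active; many hits fall short of the cut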
PABP FP inh: PABP poly(A) RNA binding inhibitors, primary screen, biochemical, fluorescence polarization, uHTS. Polyadenylate-binding protein 1 (Homo sapiens), P11940. inhibition, % at 35 µM. actives 1% (n = 290,000). AID 2014, 2009;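 active = 50% or more with normal probe brightness, or confirmed in later tests; about a fifth of its hits are not listed in these tables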;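 also: calls also rest on retests at 20 µM and on dose response follow-up; controls were probe without protein and protein plus probe with vehicle; some compounds called inactive have numbers as strong as hits; many hits fall short of the cut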
Target sequence (P11940 whole entry, looked up): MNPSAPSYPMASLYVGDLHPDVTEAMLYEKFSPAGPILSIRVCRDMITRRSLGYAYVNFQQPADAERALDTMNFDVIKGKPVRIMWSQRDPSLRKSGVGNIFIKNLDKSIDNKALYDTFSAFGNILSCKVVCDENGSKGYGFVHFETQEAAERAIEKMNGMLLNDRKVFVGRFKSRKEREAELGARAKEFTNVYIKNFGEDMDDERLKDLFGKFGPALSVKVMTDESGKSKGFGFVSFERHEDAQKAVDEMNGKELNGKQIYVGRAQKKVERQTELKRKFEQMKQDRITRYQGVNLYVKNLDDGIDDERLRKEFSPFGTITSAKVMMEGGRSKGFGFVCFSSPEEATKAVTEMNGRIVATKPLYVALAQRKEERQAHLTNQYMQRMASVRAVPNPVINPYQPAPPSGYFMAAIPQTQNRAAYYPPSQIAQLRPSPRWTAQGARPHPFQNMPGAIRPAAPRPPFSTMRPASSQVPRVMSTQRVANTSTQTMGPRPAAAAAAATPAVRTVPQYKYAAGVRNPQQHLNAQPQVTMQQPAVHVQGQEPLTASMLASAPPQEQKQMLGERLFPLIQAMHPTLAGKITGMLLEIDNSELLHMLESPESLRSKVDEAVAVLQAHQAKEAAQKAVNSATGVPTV
Rce1 inhib: yeast Rce1p protease inhibitors, primary screen, biochemical, fluorescence, cell-free homogeneous. AID 2563, 2010. actives 0.27% (n = 290,000). CAAX prenyl protease 2 (Saccharomyces cerevisiae (strain ATCC 204508 / S288c)), Q03530. yeast membranes, quenched prenylated peptide cleavage fluorescence. calls only;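 active = fall in fluorescence gain of 50% or more versus controls, with final raw signal at or below 3038400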;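 also: plate controls were neutral control wells for no effect and wells lacking membranes for full effect; tested at 10 µM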
MT1-MMP act inh RFP: further read-out of MT1-MMP act inh, marked with its call; RFP signal change, %; measured here: RFP expression control read;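 0 = vehicle wells; hits needed this value within 50% of zero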
Active calls of the source: *.

C/C(=N\NC(=O)Cn1cc([N+](=O)[O-])cn1)c1ccco1 was read as CSC inhib 12, MT1-MMP act inh 8, HIV Env fusion -1, Yeast UUG start -9, eIF4H FP inh 0, PABP FP inh 4, Rce1 inhib inactive and MT1-MMP act inh RFP 2.
For O=C(O)C1C2C=CC(C2)C1C(=O)NCc1ccc(Cl)c(Cl)c1 (configuration not stated) the results were CSC inhib -1, MT1-MMP act inh 1, HIV Env fusion 19, eIF4H FP inh 4, PABP FP inh 0, Rce1 inhib inactive and MT1-MMP act inh RFP 5.
Cc1nn(CC(=O)NCc2ccc(OC(C)C)cc2)c(=O)c2cc3occc3n12 was read as CSC inhib -1, HIV Env fusion -26, eIF4H FP inh 5, PABP FP inh -6 and Rce1 inhib inactive.
O=C(O)CCSc1nc2ccccc2n1-c1ccccc1 was read as CSC inhib -6, MT1-MMP act inh 6, HIV Env fusion -4, Yeast UUG start -6, eIF4H FP inh -8, PABP FP inh -5, Rce1 inhib inactive and MT1-MMP act inh RFP 9.
`COc1ccc(C(=O)C2CCCN(Cc3cnc(N4CCOCC4)s3)C2)c(OC)c1` (configuration not stated) gave CSC inhib -12, MT1-MMP act inh 1, HIV Env fusion -10, eIF4H FP inh -8, PABP FP inh -6, Rce1 inhib inactive and MT1-MMP act inh RFP -5.
Screening COc1cccc(NC(=O)CN(C)C(=O)CNC(=O)c2ccccc2F)c1 returned CSC inhib -11, MT1-MMP act inh 2, HIV Env fusion 10, Yeast UUG start -11, eIF4H FP inh -9, PABP FP inh -1, Rce1 inhib inactive and MT1-MMP act inh RFP 4.
Screening CC1CN(C2=N/C(=C/c3ccc4c(c3)OCO4)C(=O)N2)CC(C)O1 (configuration not stated) returned CSC inhib -13, MT1-MMP act inh -2, HIV Env fusion -13, eIF4H FP inh 1, PABP FP inh 12, Rce1 inhib inactive and MT1-MMP act inh RFP 0.
Screening O=C(N/C(=C\c1cccc(Br)c1)C(=O)N1CCOCC1)c1ccco1 returned CSC inhib -18, MT1-MMP act inh 0, HIV Env fusion 9, Yeast UUG start -10, eIF4H FP inh -4, PABP FP inh 8, Rce1 inhib inactive and MT1-MMP act inh RFP 3.
`CC(C)(C)Cc1nnc(NC(=O)CCc2ccccc2)s1` gave CSC inhib -9, MT1-MMP act inh 3, HIV Env fusion 6, Yeast UUG start -9, eIF4H FP inh -4, PABP FP inh -10, Rce1 inhib inactive and MT1-MMP act inh RFP 0.
`CC(C)(C)c1ccc(C(=O)c2c[nH]c(C(=O)NCc3ccco3)c2)cc1` gave CSC inhib 15, MT1-MMP act inh 2, Yeast UUG start -13, eIF4H FP inh -1, PABP FP inh 11, Rce1 inhib inactive and MT1-MMP act inh RFP -7.
For CC1CC(=S)Nc2ccccc2N1Cc1ccccc1 (configuration not stated) the results were CSC inhib -12, MT1-MMP act inh -5, HIV Env fusion 5, Yeast UUG start -31, eIF4H FP inh -4, PABP FP inh -2, Rce1 inhib inactive and MT1-MMP act inh RFP -7.
Screening COc1ccc(/C=N/NC(=O)Cn2cnc3c2c(=O)n(C)c(=O)n3C)cc1 returned CSC inhib -37, MT1-MMP act inh -1, HIV Env fusion -23, Yeast UUG start -5, eIF4H FP inh -2, PABP FP inh 13, Rce1 inhib inactive and MT1-MMP act inh RFP 2.
`C/C(CC(=O)NCc1ccccc1)=N\NC(N)=S` gave CSC inhib -5, MT1-MMP act inh 3, HIV Env fusion -14, eIF4H FP inh 0, PABP FP inh -6, Rce1 inhib inactive and MT1-MMP act inh RFP -2.
For COc1c(C)cc(C(=O)C2CCCN(S(=O)(=O)N(C)C)C2)cc1C (configuration not stated) the results were CSC inhib -10, MT1-MMP act inh 4, HIV Env fusion 29, Yeast UUG start 7, eIF4H FP inh -2, PABP FP inh 4, Rce1 inhib inactive and MT1-MMP act inh RFP -5.
For COc1ccc(CC(=O)NCc2n[nH]c(=S)n2-c2ccc(Br)cc2)cc1 the results were CSC inhib -7, MT1-MMP act inh 4, HIV Env fusion 15, eIF4H FP inh 4, PABP FP inh -2, Rce1 inhib inactive and MT1-MMP act inh RFP 3.
CC(C)Cc1ccc(S(=O)(=O)N2CCN(c3ccccn3)CC2)cc1 was read as CSC inhib 1, MT1-MMP act inh -4, HIV Env fusion 2, Yeast UUG start -12, eIF4H FP inh 1, PABP FP inh 4, Rce1 inhib inactive and MT1-MMP act inh RFP -14.
Screening COc1ccccc1Cn1c(SCC(N)=O)nc2c(oc3ccccc32)c1=O returned MT1-MMP act inh -1, HIV Env fusion 7, eIF4H FP inh -7, PABP FP inh -1 and MT1-MMP act inh RFP -4.
Screening COC(=O)c1ccc(NC(=S)NC2CC3CCC2C3)cc1 (configuration not stated) returned CSC inhib 19, MT1-MMP act inh 3, HIV Env fusion 0, eIF4H FP inh -1, PABP FP inh 6, Rce1 inhib inactive and MT1-MMP act inh RFP -3.
`C1=C(c2ccccc2)CCN(c2nc3ccccc3n3cnnc23)C1` gave CSC inhib -3, MT1-MMP act inh 0, HIV Env fusion -12, Yeast UUG start -39, eIF4H FP inh -7, PABP FP inh 4, Rce1 inhib inactive and MT1-MMP act inh RFP 3.
For Cc1cc(C)c(NC(=O)C2CC(=O)N(C3CCCC3)C2)c(C)c1 (configuration not stated) the results were CSC inhib 12, MT1-MMP act inh 0, HIV Env fusion 12, Yeast UUG start -19 and MT1-MMP act inh RFP 0.
`Cc1ccc(NC(=S)NCc2cccs2)c(C)c1` gave MT1-MMP act inh 5, HIV Env fusion -82, Yeast UUG start -17, eIF4H FP inh -2, PABP FP inh -3, Rce1 inhib inactive and MT1-MMP act inh RFP 7.
CC(CNCC1CCCO1)COc1ccccc1 (configuration not stated) was read as CSC inhib 2, MT1-MMP act inh -1, HIV Env fusion -42, Yeast UUG start -13, eIF4H FP inh 17, PABP FP inh 12, Rce1 inhib inactive and MT1-MMP act inh RFP 8.
`COc1cc(C(=O)OCC(=O)Nc2c(F)cccc2F)cc(OC)c1C` gave CSC inhib -8, MT1-MMP act inh 5, HIV Env fusion -2, Yeast UUG start 3, eIF4H FP inh 0, PABP FP inh -2, Rce1 inhib inactive and MT1-MMP act inh RFP 2.
NNC(=O)c1ccc([N+](=O)[O-])c(CS(=O)(=O)c2ccc(Cl)cc2)c1 was read as CSC inhib -10, MT1-MMP act inh 8, eIF4H FP inh -4, PABP FP inh 2, Rce1 inhib inactive and MT1-MMP act inh RFP 11.
Screening O=S(=O)(NC1CCSc2ccccc21)c1ccccc1 (configuration not stated) returned CSC inhib 6, MT1-MMP act inh -2, HIV Env fusion 2, Yeast UUG start -11, eIF4H FP inh -11, PABP FP inh 2, Rce1 inhib inactive and MT1-MMP act inh RFP 3.
CCOc1ccc(S(=O)(=O)Nc2cnc3ccccc3c2)cc1 was read as MT1-MMP act inh 0, HIV Env fusion 14, eIF4H FP inh -2, PABP FP inh -1, Rce1 inhib inactive and MT1-MMP act inh RFP -27.
C=C[C@@H]1c2ccccc2N(S(=O)(=O)c2ccc(C)cc2)[C@H](c2ccc(C(F)(F)F)cc2)C1(C#N)C#N was read as CSC inhib 28, MT1-MMP act inh -7, HIV Env fusion 56*, Yeast UUG start -19 and MT1-MMP act inh RFP -8.
CCCCOc1ccc(-c2[nH]ncc2C=O)cc1 was read as CSC inhib -10, MT1-MMP act inh -4, HIV Env fusion -78, eIF4H FP inh -4, PABP FP inh -4, Rce1 inhib inactive and MT1-MMP act inh RFP 1.
For Cc1cc(NS(=O)(=O)c2ccc(NS(=O)(=O)c3ccc(CC(C)C)cc3)cc2)nc(C)n1 the results were CSC inhib 3, MT1-MMP act inh 2, HIV Env fusion 1, eIF4H FP inh -17, PABP FP inh 4, Rce1 inhib inactive and MT1-MMP act inh RFP 3.
`CCCCc1ccc(NC(=O)CSc2nc(=O)n(CCCN3CCOCC3)c3c2CCC3)cc1` gave CSC inhib 11, MT1-MMP act inh -7, HIV Env fusion 9, Rce1 inhib inactive and MT1-MMP act inh RFP -10.
Screening O=C1CCN(c2ccccc2)N1 returned MT1-MMP act inh 1, HIV Env fusion -35, Yeast UUG start 13 and MT1-MMP act inh RFP -2.
Screening N/C(=N/OC(=O)c1cccc([N+](=O)[O-])c1)c1cccc([N+](=O)[O-])c1 returned CSC inhib 10, HIV Env fusion 0, eIF4H FP inh -4, PABP FP inh 4 and Rce1 inhib inactive.
`CCOC(=O)c1nnn(-c2ccccc2C#N)c1C` gave CSC inhib -6, MT1-MMP act inh 4, HIV Env fusion -3, Yeast UUG start -9, eIF4H FP inh -2, PABP FP inh 9, Rce1 inhib inactive and MT1-MMP act inh RFP 5.
CC(C)[C@H](NC(=O)OCc1ccccc1)C(=O)NCc1ccccc1 was read as CSC inhib 4, MT1-MMP act inh 2, HIV Env fusion 7, eIF4H FP inh -3, PABP FP inh 2, Rce1 inhib inactive and MT1-MMP act inh RFP 7.
For CC(C)(C)NNC(=S)Nc1cccc(F)c1 the results were CSC inhib 6, MT1-MMP act inh 5, HIV Env fusion -26, Yeast UUG start -25, eIF4H FP inh 1, PABP FP inh 1, Rce1 inhib inactive and MT1-MMP act inh RFP -3.
For COc1ccc2c(c1)C(c1ccc(C)o1)=NNC(c1ccccc1)=N2 the results were CSC inhib 3, MT1-MMP act inh 7, HIV Env fusion -8, eIF4H FP inh -8, PABP FP inh -10, Rce1 inhib inactive and MT1-MMP act inh RFP 3.
CCOC(=O)C1CCN(C(=O)C2CCC(=O)N(Cc3cccc(C(F)(F)F)c3)C2)CC1 (configuration not stated) was read as CSC inhib 2, MT1-MMP act inh -2, Yeast UUG start 5, eIF4H FP inh -2, PABP FP inh -10 and MT1-MMP act inh RFP 1.
`Cc1ccccc1Cn1c(CN2CCN(c3ccc(F)cc3)CC2)nc2c1c(=O)n(C)c(=O)n2C` gave CSC inhib 58, eIF4H FP inh -3, PABP FP inh 5 and Rce1 inhib inactive.
`CCOc1ccc(S(=O)(=O)N2CCOCC2)cc1NC(=O)CCN1C(=O)NC2(CCCC2)C1=O` gave MT1-MMP act inh -2, HIV Env fusion 1, Yeast UUG start -6 and MT1-MMP act inh RFP 4.
For CCN1CCN(S(=O)(=O)c2ccc(C(C)(C)C)cc2)CC1 the results were CSC inhib -4, MT1-MMP act inh 2, HIV Env fusion 12, Yeast UUG start -16, eIF4H FP inh 5, PABP FP inh -2, Rce1 inhib inactive and MT1-MMP act inh RFP -2.
Screening COc1cccc(C(=O)OCC(=O)N2CCC(Cc3ccccc3)CC2)c1OC returned CSC inhib 13, MT1-MMP act inh 2, HIV Env fusion 28, Yeast UUG start -4 and MT1-MMP act inh RFP 6.

An excerpt from above in order of length of the SMILES, smallest number first.
Screening O=C1CCN(c2ccccc2)N1 returned MT1-MMP act inh 1, HIV Env fusion -35, Yeast UUG start 13 and MT1-MMP act inh RFP -2.
`CCOC(=O)c1nnn(-c2ccccc2C#N)c1C` gave CSC inhib -6, MT1-MMP act inh 4, HIV Env fusion -3, Yeast UUG start -9, eIF4H FP inh -2, PABP FP inh 9, Rce1 inhib inactive and MT1-MMP act inh RFP 5.
`C/C(CC(=O)NCc1ccccc1)=N\NC(N)=S` gave CSC inhib -5, MT1-MMP act inh 3, HIV Env fusion -14, eIF4H FP inh 0, PABP FP inh -6, Rce1 inhib inactive and MT1-MMP act inh RFP -2.
NNC(=O)c1ccc([N+](=O)[O-])c(CS(=O)(=O)c2ccc(Cl)cc2)c1 was read as CSC inhib -10, MT1-MMP act inh 8, eIF4H FP inh -4, PABP FP inh 2, Rce1 inhib inactive and MT1-MMP act inh RFP 11.

Not all compounds are listed; count on the stated rates, not on these rows.
